Screens: PubChem, National Center for Advancing Translational Sciences (NCATS)
Sfp inh – blocks B. subtilis Sfp PPTase activity; Q9F4F7; Biochemical Sfp PPTase activity, qHTS; Potency, µM, for inactives: max response, negative = inhibition, usual class: inhibitors; 310,000 compounds, 3.5% hits; AID 1490; active = well fitted inhibition curve with a large enough effect; inconclusive = small, poorly fitted or top-dose-only effect, or another doubt; inactive = no such curve, though single readings can be large or run the other way;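 also: the enzyme is Sfp with the accession as filed and its product quenches rhodamine fluorescence; potency is read from the fitted curve at half-maximal effect; 0% = enzyme reaction without inhibitor and -100% = no enzyme wells; top concentration of the series not given in the record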
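Buffer: 50 mM Hepes-Na pH 7.6, 10 mM MgCl2, 0.01% Nonidet P-40, 0.01% BSA. Enzyme 15 nM, pre-exposed to compound 15 min; substrates then added and fluorescence change tracked over 30 min.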
Menin MLL FP FL – inhibitors of human menin-MLL interaction, wild-type MLL peptide; Fluorescence polarization, fluorescein-MLL peptide displacement from menin; FP activity change, % at 61.4 µM; 290,000 tested, under 10 active; AID 1766; inconclusive = falling polarisation curve, or a change in total fluorescence; inactive = total fluorescence flat and polarisation flat or rising; no compound was filed as active; the % refers to the polarisation; negative = inhibition;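 also: % of control where 0% means no effect; inhibitors lower the polarisation; unlabelled MLL peptide was the positive control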
Active calls of the source: *; ? = inconclusive; / = not tested or not shown; & = joins results of further samples; ! = a repeat was not active; [ ] = another dose, or the depositor's remark.

SMILES	Sfp inh	Menin MLL FP FL
CC(C)C[C@H](NC(=O)[C@H](Cc1ccccc1)NC(=O)CNC(=O)[C@@H](NC(=O)[C@@H](N)Cc1ccc(O)cc1)[C@H](C)O)C(=O)N[C@H](C(=O)O)[C@H](C)O	-10%	/
c1cc2cc(c1)C[n+]1ccc(c3ccccc31)NCc1ccc(cc1)CNc1cc[n+](c3ccccc13)C2	2%	/
C[C@@H]1CC([C@H](O)CC2CC(=O)NC(=O)C2)C(=O)[C@@H](C)C1 (stereo not given in full)	32%	/
CC=C1C2C=C(C)CC1(N)c1ccc(=O)[nH]c1C2 (stereo not given)	17%	/
c1ccc2sc(C3(NCC4CC4)CCCCC3)cc2c1	13%	/
C[C@H](N)C(=O)N[C@@H](C)C(=O)N[C@@H](Cc1ccccc1)C(=O)CCl	17%	/
COc1ccc(CCN)cc1	21%	/
CN1CC[C@@H]2CN3CCc4cccc(c43)[C@@H]2C1	18%	/
CC[C@H](C)[C@H](NC(=O)[C@H](CCCN=C(N)N)NC(=O)[C@H](CCCN=C(N)N)NC(=O)[C@H](CC(C)C)NC(=O)[C@H](Cc1ccccc1)NC(=O)CNC(=O)CNC(=O)[C@@H](N)Cc1ccc(O)cc1)C(=O)O	-15%	/
CSCC[C@H](NC(=O)[C@H](Cc1ccccc1)NC(=O)CNC(=O)CNC(=O)[C@@H](N)Cc1ccc(O)cc1)C(=O)O	2%	/
CC(C)C[C@H](NC(=O)[C@H](Cc1ccccc1)NC(=O)CNC(=O)CNC(=O)[C@@H](N)Cc1ccc(O)cc1)C(=O)N[C@@H](CCCN=C(N)N)C(=O)N[C@@H](CCCCN)C(=O)N[C@@H](Cc1ccc(O)cc1)C(=O)N1CCC[C@H]1C(=O)N[C@@H](CCCCN)C(=O)O	19%	/
CC[C@H](C)[C@H](NC(=O)[C@@H]1CCCN1C(=O)[C@H](CCC(=O)O)NC(=O)[C@@H](NC(=O)[C@H](Cc1ccccc1)NC(=O)[C@@H]1CCCN1C(=O)[C@@H](N)Cc1ccc(O)cc1)C(C)C)C(=O)O	17%	/
CC(C)C1C(=O)N2CCC[C@H]2[C@]2(O)O[C@](NC(=O)[C@@H]3C=C4c5cccc6[nH]cc(c56)C[C@H]4N(C)C3)(C(C)C)C(=O)N12 (stereo not given in full)	?	/
NCCCP(=O)(O)O	/	4.9
CC1(C(=O)O)C2CCC(O2)C1(C)C(=O)O (stereo not given)	/	4.2
CCCN(CCC)[C@@H]1CCc2c(F)ccc(O)c2C1	/	1.6
CC(C)[C@@]1(NC(=O)[C@@H]2C[C@@H]3c4cccc5[nH]cc(c45)C[C@H]3N(C)C2)O[C@@]2(O)C3CCCN3C(=O)[C@H](Cc3ccccc3)N2C1=O (stereo not given in full)	/	1.6
C/C=C(/C)C(=O)O[C@H]1C(C)=C2C([C@@H]1OC(=O)CCCCCCC)[C@@](C)(OC(C)=O)C[C@@H](OC(=O)CCC)[C@@]1(O)[C@H]2OC(=O)[C@@]1(C)O (stereo not given in full)	/	-2.3
CCn1cnc2c(Nc3cccc(Cl)c3)nc(N[C@@H]3CCCC[C@@H]3N)nc21	/	-1.2
CCCN(CCC)[C@H]1CCc2c(F)ccc(O)c2C1	/	3.3
CC(=O)OCC1=C(C(=O)[O-])N2C(=O)[C@@H](NC(=O)CCC[C@@H](N)C(=O)[O-])[C@H]2SC1.[Zn+2]	/	8.0
Clc1cccc(SC2CCNCC2)n1	-11%&20%	?
CC[C@]1(c2cccc(O)c2)CCCCN(C)C1	19%	-0.1[24.8 µM]
CCCN(CCC)[C@@H]1CCc2c(OC)cccc2[C@@H]1C	6%&0%	?
CCN1C[C@]2(COC(=O)c3ccccc3N3C(=O)C[C@H](C)C3=O)CC[C@H](OC)[C@@]34[C@@H]5C[C@H]6[C@H](OC)[C@H]5[C@](O)(C[C@@H]6OC)[C@@](O)([C@@H](OC)[C@@H]23)[C@@H]14	-6%	7.8

The list continues:
SMILES	Sfp inh	Menin MLL FP FL
COC(=O)c1ccc2[se]c(CC3CCCCC3)c(I)c2c1	-1%	-5.3
COc1cc2c(cc1O)-c1c(O)c(OC)cc3c1[C@H](C2)N(C)CC3	?	-1.0
COC(=O)C(c1ccccc1)C1CCCCN1 (stereo not given)	-7%	1.5
c1ccc2c(c1)c1cc[n+]2CCCCC[n+]2ccc(c3ccccc32)NCCCCCN1	-10%	-16
O=C(Cc1ccc(Cl)c(Cl)c1)N1CCCCC1CN1CCCC1 (stereo not given)	-27%	0.6
O=C(NC(=O)c1c(F)cccc1F)Nc1ccc(Cl)c(Oc2ncc(C(F)(F)F)cc2Cl)c1	22%	-2.9
O=C(NC(=O)c1ccccc1Cl)Nc1ccc(OC(F)(F)F)cc1	0%	-10
COC(=O)COc1ccc(Cl)cc1Cl	4%	-0.9
CCCc1cc2c(n1Cc1cccc(Cl)c1)C(C)C1CN(C(=O)c3ccccc3)C(C)(C(=O)OC)C21 (stereo not given)	-3%	?
COc1ccc2c3c1OC1CC(O)C=C[C@@]31CCN(C)C2 (stereo not given in full)	17%	-2.1
O=C(O)[C@H]1[C@H]2CN[C@H](C(=O)O)[C@H]21	?	-8.1
C/C=C1\C[N@@+]2(C)CC[C@@]34C(=C(C=O)[C@H]1C[C@H]32)Nc1ccccc14	35µM*	1.7[24.8 µM]
CC1C(=O)OC2CC34C5CC(C(C)(C)C)C36C(OC(=O)C6O)OC4(C(=O)O5)C21O (stereo not given)	2%	?
Nc1ccc(N)cc1	-27%&-18%	14&3.6
CC1=C2C(=O)C3C(CC=C4C[C@@H](O)CC[C@@]43C)[C@@H]2CC[C@]12O[C@@H]1C[C@H](C)CN[C@H]1C2C (stereo not given in full)	4%	0.2
CN1CCC2=C[C@H](O)[C@@H]3OC(=O)c4cc5c(cc4[C@H]3[C@H]21)OCO5	20%	0.5[24.8 µM]
Oc1ccc2c3c1O[C@H]1[C@H](O)CC[C@@]4(O)[C@@H](C2)N(CC2CC2)CC[C@]314	3%	2.1
Cc1c(Cl)c(=O)oc2cc(OP(=O)(OCCCl)OCCCl)ccc12	9%	-1.4
CCCCC/C=C\C/C=C\C/C=C\C/C=C\CCCC(=O)NCc1ccoc1	22µM*	?
CC(C)CN1CC[C@@]2(CCCN(C(=O)c3ccncc3)C2)C1	-3%	0.8
CCCCC/C=C\C/C=C\C/C=C\C/C=C\CCCC(=O)NCCO	45µM*!	?
CC(=O)Nc1c2sscc-2n(C)c1=O	?	-7.0
CC(=O)OCC1=C(C(=O)O)N2C(=O)[C@@H](N)[C@@H]2SC1	22µM*	-1.5[24.8 µM]
COc1c(CC=C(C)C)c2c(c3oc(=O)c(-c4ccc(O)cc4)c(O)c13)C=CC(C)(C)O2	2%	1.3
CCN1C[C@]2(C)CC[C@H](O)[C@@]34[C@@H]5CC6[C@@H](OC)C[C@@](O)([C@@H]5[C@@H]6O)[C@H](C[C@@H]23)[C@H]14	13%	1.5[24.8 µM]

Next section
SMILES	Sfp inh	Menin MLL FP FL
CC(C)NC(=O)N1CCCC2(CCN(C(=O)Oc3ccccc3)CC2)C1	-1%	2.7
COC(=O)CCCc1[se]c2ccccc2c1I	-28%	-6.8
CC1COC2=C1C(=O)C(=O)c1c2ccc2c1CCCC2(C)C (stereo not given)	?	?
O=C(NC(O)C(Cl)(Cl)Cl)NC(O)C(Cl)(Cl)Cl (stereo not given)	6%	-1.8
CCC(C)C(=O)OC1C(O)C2C(CN3CC(C)CCC3[C@]2(C)O)C2C[C@]34O[C@@]5(O)C(OC(=O)C(C)(O)CC)CCC3(C)C5C(OC(C)=O)C(OC(C)=O)C4[C@@]21O (stereo not given in full)	3%	-0.2
CN1CCC2(CC1)CCN(C(=O)Oc1ccccc1)CC2	15%	0.0
CN1C(=O)[C@]23CC4=CC=C[C@H](O)[C@H]4N2C(=O)[C@@]1(CO)SS3	2.5µM*	1.6
COC1(C)CC(c2ccccc2)c2c(c3ccccc3oc2=O)O1 (stereo not given)	-5%	0.8
C=C(C)[C@]12C[C@@H](C)[C@@]34OC(Cc5ccccc5)(O[C@@H]1[C@@H]3C=C(COC(=O)Cc1cc(I)c(O)c(OC)c1)C[C@]1(O)C(=O)C(C)=C[C@@H]41)O2	34%[activator]	-6.9
O=C(Oc1ccccc1)N1CCC2(CCN(Cc3ccccc3)CC2)CC1	11%	-1.3
C[C@@H]1O[C@H](O[C@H]2C[C@@H](O)[C@@]3(CO)[C@H]4[C@@H](O)C[C@]5(C)[C@@H](C6=CC(=O)OC6)CC[C@]5(O)[C@H]4CC[C@]3(O)C2)[C@@H](O)[C@H](O)[C@@H]1O	15%	1.8[24.8 µM]
O=C(Oc1ccccc1)N1CCC2(CC1)CCN(C(c1ccccc1)c1ccccc1)CC2	23%	-3.8
CC(C)(C)NC[C@@H](O)COc1cccc2[nH]c(C#N)cc12	12%	-8.5
Clc1ccc(Cl)cc1	26%	0.5
CCN(CC)/[N+]([O-])=N/O	-8%	-1.4
CC(C)(C)OC(=O)C(Br)CCBr (stereo not given)	-10%	-2.5
COc1ccc(NC(=O)N2CCC3(CC2)CCN(C(=O)Oc2ccccc2)CC3)cc1	12%	-6.6
CC(=O)O[C@H]1C2[C@@H](OC(=O)Cc3ccccc3)[C@@H](C)C[C@]2(OC(C)=O)C(=O)/C(C)=C/[C@@H]2[C@H](CC[C@@]13CO3)C2(C)C (stereo not given in full)	2%	1.2
CCC1COC(Cn2cncn2)(c2ccc(Cl)cc2Cl)O1 (stereo not given)	-23%	5.6
CS(=O)(=O)c1ccc([C@H](O)[C@H](CF)NC(=O)C(Cl)Cl)cc1	21%	?
Nc1nc(/C(=C/CC(=O)O)C(=O)NC2C(=O)N3C(C(=O)O)=CCSC23)cs1 (stereo not given)	56µM*	5.1
O=C(Nc1cccc(F)c1)N1CC2(CCN(C(=O)Oc3ccccc3)CC2)C1	10%	-1.0
CC(C)NC[C@H](O)c1ccc(N)c(C#N)c1	-9%	-18
O=C(c1ccncc1)N1CCC2(CC1)CN(Cc1ccccc1)C2	22%	-5.7
CN1C2CCC1CC(OC(c1ccccc1)c1ccc(Cl)cc1)C2 (stereo not given)	-16%	-1.7&2.8

The results go on:
SMILES	Sfp inh	Menin MLL FP FL
C[C@H](N)Cc1ccccc1	7%	-0.7
CCN(CC)C(=O)N[C@@H]1C[C@@H]2c3cccc4[nH]cc(c34)C[C@H]2N(C)C1	-3%	?
COC1(CS(=O)c2ccccc2)CCN(CCc2c[nH]c3ccc(F)cc23)CC1 (stereo not given)	-3%	?
O=C(c1csnn1)N1CCC2(CC1)CN(Cc1ccncc1)C2	-9%	0.0
CCOP(=O)(OCC)Oc1ccc2ccc(=O)oc2c1	-5%	0.3
Oc1cccc[c]1[Hg][Cl]	0.14µM*	-0.5
CC(C)[C@@]1(NC(=O)[C@H]2CC3c4cccc5[nH]cc(c45)C[C@H]3N(C)C2)O[C@@]2(O)C3CCCN3C(=O)[C@@H](Cc3ccccc3)N2C1=O (stereo not given in full)	79µM*!	-5.9
CCCCCCCCCC[N+](C)(C)CCCCCCCCCC	?	1.9
CCCCCCCCCCCCC/C=C/[C@@H](O)[C@@H](N)COP(=O)([O-])OCC[N+](C)(C)C	?	-1.9
C[C@H](N)[C@@H](O)c1ccccc1	-5%	8.9[24.8 µM]
CC1=C(O)C(=O)[C@H]2O[C@@H]2C1=O	4µM*	-15
OC(c1ccc(Cl)cc1)(c1cncnc1)c1ccccc1Cl (stereo not given)	-12%	-2.7
C[N+](C)(C)CC(=O)[O-]	-11%	-0.2
N[C@@H](Cn1ccc(=O)n(Cc2ccc(C(=O)O)cc2)c1=O)C(=O)O	-29%	1.1
c1ccc(CN2CCCC3(CCNCC3)C2)cc1	-14%	-2.9
CN1C(=O)N(C)C(=O)C2(Cc3cc(N)ccc3N3CCN(c4ccccc4F)CC32)C1=O (stereo not given)	9%	-2.0
c1cncc(C2=NCCC2)c1	-8%&-1%	0.1[24.8 µM]
CN(C(=O)Cc1ccc(Cl)c(Cl)c1)[C@H](CN1CCCC1)c1cccc(N=C=S)c1	50µM*	?
O=C1Nc2cc(Cl)c(Cl)cc2N2CCNC[C@H]12	-22%	-6.1
C[C@H]1CC[C@@H]2[C@@H](C)C(=O)O[C@H]3O[C@@]4(C)CC[C@H]1[C@@]32OO4	24%	1.7[24.8 µM]
F/C(COc1ccc2c(c1)[nH]c1ccccc12)=C1/CN2CCC1CC2	?	3.7&2.5
C[C@H](CCC(=O)O)C[C@H](C)C[C@H](C)C(=O)/C=C(\O)[C@H](C)C[C@H](C)C/C=C/[C@@H](C)[C@@H](O)[C@@H](C)[C@@H](O)C[C@@H]1CC[C@@](C)([C@H]2CC[C@@](C)([C@@H](C)O)O2)O1	2%	-5.3
N#Cc1ccc(CN2CCCC3(CCN(C(=O)Oc4ccccc4)CC3)C2)cc1	-10%	7.6

5 successive entries already listed, quoted:
SMILES	Sfp inh	Menin MLL FP FL
O=C1Nc2cc(Cl)c(Cl)cc2N2CCNC[C@H]12	-22%	-6.1
C[C@H]1CC[C@@H]2[C@@H](C)C(=O)O[C@H]3O[C@@]4(C)CC[C@H]1[C@@]32OO4	24%	1.7[24.8 µM]
F/C(COc1ccc2c(c1)[nH]c1ccccc12)=C1/CN2CCC1CC2	?	3.7&2.5
C[C@H](CCC(=O)O)C[C@H](C)C[C@H](C)C(=O)/C=C(\O)[C@H](C)C[C@H](C)C/C=C/[C@@H](C)[C@@H](O)[C@@H](C)[C@@H](O)C[C@@H]1CC[C@@](C)([C@H]2CC[C@@](C)([C@@H](C)O)O2)O1	2%	-5.3
N#Cc1ccc(CN2CCCC3(CCN(C(=O)Oc4ccccc4)CC3)C2)cc1	-10%	7.6

The list is partial. The share of hits here may be higher or lower than overall.
